AF4-AF9 inh: MLL-AF4/AF9 protein interaction inhibition. AlphaScreen, biotin-AF4 peptide binding to FLAG-AF9. AID 651704. 350,000 compounds, 0.47% hits. P42568. inhibition, % at 10 µM;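 active = every replicate reaching a set inhibition limit, whatever the replicate mean, cut at about 25% in these data; inconclusive = mean inhibition reaches that limit but some replicates miss it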;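 also: 0% = plate neutral control median and 100% = total signal loss; the record names both 10 and 1 µM as test concentration; the first replicate is given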
Target sequence (P42568 whole entry, looked up): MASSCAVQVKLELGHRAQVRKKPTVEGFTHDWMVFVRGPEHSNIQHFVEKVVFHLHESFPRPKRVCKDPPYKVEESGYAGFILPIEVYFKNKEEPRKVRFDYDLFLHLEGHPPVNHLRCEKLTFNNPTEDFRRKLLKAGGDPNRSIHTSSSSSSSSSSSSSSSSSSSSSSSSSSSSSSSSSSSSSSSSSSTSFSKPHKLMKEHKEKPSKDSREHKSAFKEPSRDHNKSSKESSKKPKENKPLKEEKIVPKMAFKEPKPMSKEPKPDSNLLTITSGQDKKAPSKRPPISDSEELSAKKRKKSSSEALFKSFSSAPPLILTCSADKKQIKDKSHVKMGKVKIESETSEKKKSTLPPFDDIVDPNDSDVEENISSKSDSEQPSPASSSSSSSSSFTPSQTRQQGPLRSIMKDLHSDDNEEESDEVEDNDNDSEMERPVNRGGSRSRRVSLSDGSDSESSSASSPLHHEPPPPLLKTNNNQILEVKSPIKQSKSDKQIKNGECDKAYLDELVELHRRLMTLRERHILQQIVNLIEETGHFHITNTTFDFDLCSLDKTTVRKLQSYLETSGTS
Ecoli rRNA inh: selective bacterial rRNA inhibition in E. coli | E. coli WT GFP vs humanized-ribosome RFP mutants, fluorescence, 24 h; stronger effect = lower value; DMSO median 0, no signal -100 | GFP signal change (wild-type ribosome), % (no concentration beside the values) | 350,000 compounds, 1.6% hits | AID 720706;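 active = significant combined selectivity score with lowered wild-type GFP, culture density cut under 30%, mutant RFP and density less affected; inactive = any of these conditions unmet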; also: one replicate is shown; some compounds called inactive have numbers as strong as hits
UCH37 inh: human UCH37 deubiquitinating enzyme inhibition; Q9Y5K5; purified proteasome/UCH37, Ub-AMC cleavage fluorescence; inhibition, % (no concentration beside the values); 330,000 compounds, 0.33% hits;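 active = mean of two replicates above 20%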;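 also: 0% = compound-free wells with enzyme and 100% = wells lacking proteasome; stock transfer was 100 nL into about 20 µL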
Target sequence (Q9Y5K5 whole entry, looked up): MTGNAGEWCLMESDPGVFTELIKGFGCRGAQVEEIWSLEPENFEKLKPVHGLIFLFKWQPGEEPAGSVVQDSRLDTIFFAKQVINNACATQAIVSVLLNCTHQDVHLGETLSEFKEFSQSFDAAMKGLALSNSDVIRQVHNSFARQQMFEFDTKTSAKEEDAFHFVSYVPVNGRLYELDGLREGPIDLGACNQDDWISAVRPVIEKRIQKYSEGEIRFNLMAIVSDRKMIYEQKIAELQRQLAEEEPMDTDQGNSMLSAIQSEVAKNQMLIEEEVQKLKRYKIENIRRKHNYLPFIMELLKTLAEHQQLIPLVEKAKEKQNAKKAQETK
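system = Proteasome-associated human UCH37 deubiquitinase | amount = 0.15 nM proteasome as dispensed | medium = pH 7.4 Tris-HCl (50 mM) with ovalbumin, ATP-MgCl2, DTT | incubation = 30 min preincubation with enzyme, 25 min cleavage at room temperature | detection = AMC fluorescence 355/460 nm | read-out basis = percent inhibition | controls = no-proteasome and no-compound wells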
E coli growth: blocks Escherichia coli growth; OD600, 23 h; stronger effect = lower value; OD600 absorbance (test concentration not listed); 330,000 compounds, 0.21% hits;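 active = OD600 absorbance below the run mean of sample wells minus 3.6 SD, in any replicate, cut at about 0.56 in these data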;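 also: stock transfer was 300 nL into about 60 µL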
FGF22 binding: binders of recombinant human FGF22 by thermal shift | Q9HCT0 | SYPRO orange fluorescence; percent of sucrose octasulfate shift, DMSO zero | calls only at 9.99 µM | 340,000 compounds, 1.5% hits;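 active = melting point raised past a set limit in the mean and every replicate; inconclusive = no clear call; three in four hits are not shown here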
Bfl-1 A1 inh: inhibitors of the anti-apoptotic protein A1, read as caspase activation; AID 2462; 330,000 compounds, 0.066% hits; caspase activation, % (test concentration not listed); MEF A1-2A-BIM cells, Caspase-Glo 3/7 luminescence, 3 h; percent of clofoctol response, vehicle zero;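 active = over half of replicate activation scores above 10%, or exactly half above 10 with the replicate mean above 10; inconclusive = replicate mean below 10 yet half the replicates above 10; inactive = over half of replicates below 10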;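 also: wells of about 30 µL received 50 nL stock; many hits fall short of the cut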
Beta apoptosis: beta cell apoptosis inhibition; INS-1E cytokine-induced death, ATP luminescence, 48 h; percent of positive-control rescue, neutral wells zero; AID 435005; 300,000 compounds, 0.8% hits; protection from apoptosis, % (test concentration not listed);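 active = all replicates at 75% or more, or half of them and the mean; inconclusive = half reach 75% but not the mean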;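 also: 0% = cytokine-treated negative control wells and 100% = positive control rescue; higher means more ATP so stronger rescue from cytokine killing; wells of about 40 µL received 100 nL stock; the first replicate is given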
T cruzi inh: T. cruzi replication inhibition. AID 1885. inhibition, % (no concentration beside the values). 300,000 compounds, 1.4% hits. T. cruzi beta-gal in NIH3T3, luminescence, 90 h;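 active = mean inhibition across valid replicates above about 55%, limit read from the data; inconclusive = mean below that limit but half or more replicates reach it; inactive = mean below it, under half of replicates reach it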;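 also: signal also drops with host cell toxicity which is not excluded here; 0% = plate median of DMSO wells and 100% = zero luminescence signal; higher percent means less beta-gal luminescence so fewer parasites; stock transfer was 50 nL into about 50 µL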
Ecoli rRNA inh OD600: second read-out of Ecoli rRNA inh, no call of its own (marks repeat the call); OD600 change, %; measured here: OD600 growth;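 optical density of the mix in the first replicate; 0 = DMSO median and -100 = no signal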
Ecoli rRNA inh RFP: recorded beside Ecoli rRNA inh, whose call it bears; RFP signal change, %; measured here: RFP humanized mutant strains;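 first replicate; 0 = DMSO median and -100 = no signal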
An asterisk follows results filed as active; i = inactive; u = inconclusive; x = not tested or not shown. Only part of the results is shown; the hit share may differ from the screen's.

#	structure	AF4-AF9 inh	Ecoli rRNA inh	Ecoli rRNA inh OD600	Ecoli rRNA inh RFP	UCH37 inh	E coli growth	FGF22 binding	Bfl-1 A1 inh	Beta apoptosis	T cruzi inh
1	CCOC(=O)c1c(/N=C/C2=C(O)CC(C)(C)CC2=O)sc2c1CCCC2	2.5	12	1	-0.3	x	x	i	0.0	-5	-5
2	Cc1cccc(C)c1NC(=O)c1cnn(-c2ccccc2)c1C	0.1	-4	-12	-1.5	0.1	0.66	i	0.7	-8	4
3	O=C(Nc1ccccc1)c1cc(Cl)nc2ccccc12	x	x	x	x	6.6	0.69	x	-0.8	-4	-9
4	CCCc1c(C(=O)N/N=C(\C)CCc2ccc(OC)cc2)nnn1-c1nonc1N	0.8	7	-2	0.0	x	x	i	0.3	-6	-3
5	CCOC(=O)C1=C(COC(=O)C(CC)c2ccccc2)NC(=O)NC1C (centres undefined)	-2.7	-7	-10	-0.1	4.0	0.72	i	0.2	-2	x
6	Cc1ccc(S(=O)(=O)N2C[C@@H]3[C@H]4CC[C@H](C4)[C@@H]3[C@@H](C)[C@@H]2c2cn(Cc3ccccc3)c3ncccc23)cc1	3.3	9	16	-0.5	-1.2	0.72	i	x	x	x
7	COc1c(NC=O)c2c(c([N+](=O)[O-])c1OC)C(=O)OC2	-24	-3	2	-0.8	4.2	0.66	i	x	x	x
8	Cn1c(=O)c(C(=O)NC2CCCCCCC2)c(O)c2ccccc21	x	x	x	x	-5.2	0.7	x	0.6	-6	-27
9	COc1ccc(/C=C/c2ccc3cccc(O)c3n2)cc1Br	0.2	-7	-5	1.3	-1.3	0.7	i	-4.3	22	44
10	CC(=O)Oc1c(S(=O)(=O)c2ccc(C)cc2)c(C)nn1C(C)(C)C	x	x	x	x	1.4	0.7	x	-0.4	-7	7
11	COc1ccc(-c2noc(CN3CCOCC3)n2)cc1OC	x	x	x	x	2.4	0.71	x	-0.6	1	-4
12	COc1ccc(Br)cc1CN(C)CC(=O)NCc1ccc(F)cc1	-2.1	-37	-32	-0.2	3.6	0.67	i	0.1	98*	3
13	COc1ccc(CCNC(=O)COC(=O)CSc2ccc([N+](=O)[O-])cc2)cc1OC	1.3	-5	-3	-1.3	8.7	0.66	i	-0.6	-4	x
14	Cc1[nH]c(=O)[nH]c(=O)c1NC(=O)c1ccc(OC(C)C)cc1	-1.9	13	7	-2.8	0.3	0.73	i	0.3	-4	-4
15	CC(=O)Nc1ccc(Nc2ncnc3ccccc23)cc1	x	x	x	x	7.2	0.65	x	1.2	1	4
16	N#CNC(N)=Nc1cccc(Cl)c1	x	x	x	x	0.3	0.68	x	-0.1	-5	-25
17	O=[N+]([O-])c1ccc(C(O)CN2CCOCC2)cc1 (centres undefined)	-1.8	5	11	-2.2	0.9	0.65	i	-0.2	-5	0
18	CCc1cc2c(Nc3ccccc3O)nc(C)nc2s1	-3.3	-8	-5	2.4	1.6	0.63	i	-2.2	7	-26
19	O=C(NC1CCS(=O)(=O)C1)c1cn(-c2ccccc2)nc1-c1ccccc1 (centres undefined)	x	x	x	x	1.0	0.72	x	-0.3	-8	10
20	COc1ccc(C(=O)N2CCNC(=O)C2CC(=O)Nc2cc(Cl)ccc2OC)cc1 (centres undefined)	1.8	5	10	-1.0	2.2	0.68	i	-0.3	-6	-3
21	COc1ccccc1CCC(=O)OCC(=O)Nc1cc(S(=O)(=O)N2CCOCC2)ccc1C	0.1	-1	2	-4.1	2.6	0.63	i	0.0	0	-14
22	COc1ccccc1CNC(=O)C1CCN(S(=O)(=O)c2ccc3c(c2)OCCCO3)CC1	x	x	x	x	5.0	0.71	x	0.6	2	3
23	COC(=O)CC1NCCNC1=O (centres undefined)	x	x	x	x	1.2	0.72	x	0.3	-5	-4
24	CC(C)c1nnc(NC(=O)c2nc(S(=O)(=O)Cc3ccccc3F)ncc2Cl)s1	-2.7	-1	-6	-2.0	x	x	i	u	-27	-24
25	Cc1ccc(/C(O)=C2/C(=O)C(=O)N(c3ccccn3)C2c2ccc([N+](=O)[O-])cc2)cc1 (centres undefined)	4.1	-3	2	-1.6	9.3	0.68	i	u	-4	-2
26	Cc1ccc(-n2nc3c(c2NC(=O)CC(C)C)CS(=O)C3)cc1 (centres undefined)	-0.5	10	20	2.1	0.8	0.7	i	0.2	-2	-2
27	CCCC[C@@H]1C[C@H]1[C@@H](NC(=O)c1ccco1)c1ccccc1C(F)(F)F	x	x	x	x	0.1	x	x	-1.3	4	-5
28	CS(=O)(=O)N1CCN=C1SCc1cccc(F)c1	-0.3	13	7	-1.0	0.4	0.71	i	-0.1	1	-13
29	COc1ccccc1-n1c(C)nc2cc(C(=O)NCC3CCCO3)ccc21 (centres undefined)	-7.1	3	-6	1.5	0.7	0.62	i	1.0	3	-5
30	CN(C)C(=O)CCc1ccc2c3c([nH]c2c1)[C@]1(CCC2CCCC2)[C@@H](C(=O)N2CCOCC2)C[C@H](CC(=O)NCCc2ccccn2)C(=O)N1CC3	0.4	x	x	x	1.1	0.69	i	x	x	x

Some of these compounds in order of the Ecoli rRNA inh RFP value, descending:
No. | structure | Ecoli rRNA inh RFP
18 | CCc1cc2c(Nc3ccccc3O)nc(C)nc2s1 | 2.4
9 | COc1ccc(/C=C/c2ccc3cccc(O)c3n2)cc1Br | 1.3
20 | COc1ccc(C(=O)N2CCNC(=O)C2CC(=O)Nc2cc(Cl)ccc2OC)cc1 (centres undefined) | -1.0

(next part)
#	structure	AF4-AF9 inh	Ecoli rRNA inh	Ecoli rRNA inh OD600	Ecoli rRNA inh RFP	UCH37 inh	E coli growth	FGF22 binding	Bfl-1 A1 inh	Beta apoptosis	T cruzi inh
31	O=C1c2ccccc2C(=O)C1(CO)c1ccccc1	-2.2	7	-1	5.2	2.8	0.61	i	-6.2	-1	-16
32	NC(=O)C1CCN(S(=O)(=O)c2cccc(C(=O)O)c2)CC1	x	x	x	x	0.2	0.74	x	2.1	-7	3
33	Cc1cc(OCC(O)CN2CCCC2)ccc1C(C)C (centres undefined)	0.5	13	12	-0.2	3.9	0.68	i	1.6	-4	-19
34	COc1ccc2sc3c(=O)[nH]c4ccccc4c3c2c1	x	x	x	x	-19	0.73	x	-1.1	41	-15
35	O=C(NC(=S)Nc1ccccc1)c1cc(-c2ccccc2)nc2ccccc12	x	x	x	x	3.9	0.74	x	1.5	2	14
36	Cc1ccccc1NC(=O)c1c(C)nn(-c2ccccc2)c1Cl	-0.3	-1	-5	-3.9	-0.7	0.62	i	0.7	-3	-3
37	COc1cccc(N=Cc2ccc(O)cc2O)c1	1.3	8	10	9.4	-1.1	0.68	i	0.0	-3	-24
38	CC(=O)c1ccccc1NS(=O)(=O)c1ccccc1Cl	-1.0	17	12	-0.3	0.3	0.7	i	-2.2	-4	-5
39	Cc1nc2ccccn2c1C(=O)NNC(=S)Nc1ccc(Cl)cc1	x	x	x	x	3.3	0.6	x	0.1	2	-13
40	Cc1oc(C)c2c(=O)ccc3c(c12)OC(N)=C(C#N)C3c1ccc(F)cc1 (centres undefined)	x	x	x	x	2.0	0.71	x	0.3	-1	6
41	CCNC(=O)COC(=O)/C=C/c1c(C)nn(Cc2cccc(OC)c2)c1Cl	7.0	-12	-22	-0.4	0.1	0.71	i	-0.5	-6	1
42	Cc1ccc(S(=O)(=O)N(C)C)cc1NC(=O)C1Cc2ccccc2CN1C(=O)c1ccco1 (centres undefined)	5.4	0	6	-0.2	0.4	0.67	i	-0.3	-3	-1
43	O=C(O)CC(c1cccc(O)c1)N1Cc2ccccc2C1=O (centres undefined)	-2.6	10	13	-2.1	3.5	0.65	i	0.6	1	-3
44	O=C(CN1C(=O)c2cccc3cccc(c23)C1=O)NCCN1CCOCC1	0.8	3	9	-0.9	-63	0.67	i	-0.2	-2	-5
45	COc1ccc(CN(C)C(=O)c2ccc(NC(=O)CC3SC(N4CCCC4)=NC3=O)cc2)c(OC)c1OC (centres undefined)	2.6	2	-6	3.0	2.2	0.71	i	0.1	3	0
46	COc1cccc(CNC(=O)Cc2csc(Nc3nc(=S)[nH]c4ccccc34)n2)c1	1.7	10	3	11	0.9	0.73	i	0.4	1	-6
47	COc1ccc(-c2noc(COc3ccc4c(c3)OCO4)n2)cc1	x	x	x	x	-14	0.7	x	-0.3	-4	8
48	COc1ccc(CCNC(=O)c2nc(-c3cccs3)no2)cc1OC	-4.3	-22*	-17*	-1.5*	5.1	0.72	i	-0.6	-1	-24
49	CC1CC(C)CN(CC(=O)Nc2ccc3c(c2)OCCO3)C1 (centres undefined)	x	x	x	x	-0.3	0.7	x	-0.1	-4	-2
50	COc1ccc2c(c1)cc1n2CCN2CCCN=C12	-0.5	12	9	5.4	-17	0.72	i	0.1	1	1
51	O=C(CCNC(=O)c1ccc(Cl)cc1)Nc1ccc(Cl)cc1F	-2.3	7	1	3.3	-1.1	0.7	i	0.3	1	6
52	CCc1nnc(NC(=O)CSc2nnc(CNc3cccc(C)c3)n2-c2ccccc2)s1	x	x	x	x	-1.5	0.68	x	-1.4	0	5
53	Cc1ccc(-n2c(C)cc(C=C3C(=O)N(C)C(=O)N(C)C3=O)c2C)cc1	-0.7	-5	9	-5.9	-5.1	0.72	i	x	x	x
54	O=[N+]([O-])c1cccc(N/N=C/c2ccc(N3CCOCC3)cc2)c1	11	2	5	2.7	x	x	i	-0.1	2	34
55	NNC(=O)Cc1cn(-c2ncc(C(F)(F)F)cc2Cl)c2ccccc12	x	x	x	x	7.5	0.78	x	-0.4	x	3

Assay outcomes from PubChem BioAssay.
